Screening results from PubChem.
Tgondii IFNg – blocks Toxoplasma gondii growth in the presence of IFN-gamma; actives 3.8% (n = 69,000); activity change, negative = inhibition, %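 (about 20 µM by stock and volumes)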; AID 1259416; Toxoplasma gondii growth in IFN-gamma-treated host cells; stronger effect = lower value; reference of the scale not given here;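 active = below -70%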;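 note: host cells are HeLa cells infected with Toxoplasma gondii; parasite growth read as luciferase light; one replicate is shown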
An asterisk follows results filed as active; i = inactive; & = joins results of further samples.

SMILES,Tgondii IFNg
Cc1ccc(NC(=O)CC(=O)NCCN2CCCCC2CO)cc1Cl (stereo unspecified),-64
CNc1nc(N2CC(c3ccncc3)C2)nc2c1CCC2,9
CC(=O)c1c(C)nn(CC(=O)N2Cc3cnc(C(C)(C)C)nc3C2)c1C,2
Cc1cc(S(=O)(=O)NN(C)c2cccc(Cl)c2C#N)cc(C)c1F,28
COc1ccc(-c2cnc(NC(=O)COc3ccc4nsnc4c3)n2C)cc1,10
O=C1CCc2cc(S(=O)(=O)Nc3cc(C(F)(F)F)ccc3Cl)cc3c2N1CC3,196
CCCN1CCc2nc(SCc3nc(-c4ccc(OC)cc4OC)oc3C)[nH]c(=O)c2C1,15
CN(CCOc1ccccc1)C(=O)c1ccc(CC2CCCNC2)cc1 (stereo unspecified),0

Following part:
SMILES,Tgondii IFNg
CCn1c(C2CCCNC2)nn(Cc2ccc(C(=O)NC)o2)c1=O (stereo unspecified),-1
CS(=O)(=O)N1CCO[C@H]2[C@@H](Oc3ccccn3)CC[C@H]21,-59
CN1CC2(CCN(C(=O)CCNC(=O)c3ccc(F)cc3)C2)OC1=O (stereo unspecified),1
Cc1ccc(F)cc1NC(=O)N1CCCC(O)(CN(C)C)CC1 (stereo unspecified),4
N#C[C@H]1[C@@H](c2ccccc2)[C@H](CO)N1C(=O)Nc1cccc(F)c1,16
O=S(=O)(Cc1noc(-c2ccno2)n1)Cc1ccco1,-25
O=C(CCCC(=O)OCC1CCCO1)OCC1CCCO1 (stereo unspecified),35
Cc1noc([C@@]23COC[C@@H]2CN(C(=O)c2occc2C)C3)n1,-1

Next section.
SMILES,Tgondii IFNg
CCC(=O)NCc1ccccc1-c1ccnc2c1ccn2C,1
CN1CCN(C)C(c2nnc3ccc(C(=O)NCCc4ccccn4)cn23)C1 (stereo unspecified),2
Cc1noc(C)c1S(=O)(=O)N1CCCC1c1cccc(Nc2cnccn2)n1 (stereo unspecified),29
Cc1oc(-c2ccc(C(=O)NCc3ccc4c(c3)OCO4)cc2)nc1CN1CCc2ccccc21,45
Cc1onc(-c2c(Cl)cccc2Cl)c1NC(=O)N(C)c1c2c(nn1C)CCCC2,54
O=S(=O)(c1ccccc1)N1CCC(c2nc3ccc(-c4ccncc4)cn3n2)CC1,-6
CCOCc1cncc2c1CCN(C(=O)c1ccc[nH]1)C2,-2
C[C@H]1CN([C@@H](C)CO)C(=O)Cc2cc(N(C)C)ccc2O[C@H]1CN(C)C(=O)NC1CCCCC1,2

(next part)
SMILES,Tgondii IFNg
CSc1nc(N)nc(-c2cc(Cl)cc(Cl)c2)n1,-51
O=C(Nc1cccc(F)c1)c1cncc(NS(=O)(=O)c2ccc(Br)cc2)c1,-18
Cc1nc(N)nc(C)c1CC(=O)Nc1cnc2n1CCCC2,1
CCn1c(-c2cc(NC(=O)c3cncc(Br)c3)n[nH]2)cc2ccccc21,-103*
CN(C)CCN1CCCn2cnc(CNc3ncccn3)c2C1,-5
Cc1cc2cc(C(=O)NCCSc3nccn3C)ccc2o1,10
COc1ccccc1-c1cnc2c(c1)C(=O)N([C@@H](C)CO)C[C@@H](C)[C@@H](CN(C)C(=O)CC1CC1)O2,165
C[C@H](CO)N1C[C@H](C)[C@H](CN(C)C(=O)NC2CCCCC2)Oc2c(NC(=O)c3cnccn3)cccc2C1=O,-1

(next part)
SMILES,Tgondii IFNg
O=C(CN1C(=O)COc2ccc(C(=O)c3cccs3)cc21)NCCC1=CCCCC1,28
CCCc1nc(C(C)(C)O)c(C(=O)OCc2oc(=O)oc2C)n1Cc1ccc(-c2ccccc2-c2nn[nH]n2)cc1,7&11
CCOc1ccc(NC(=O)CN2C(=O)CCc3cc(Br)ccc32)cc1,79
COCCN1C(=O)CC2C1CCN2C(=O)c1cccc(C#N)c1 (stereo unspecified),-3
Nc1ncc(C(=O)N2CCC(N3CCCC3=O)CC2)c(-c2ccccc2)n1,91
Cc1cc(C)nc(NCCC(=O)NC(C)c2ccccn2)n1 (stereo unspecified),-9
O=C(c1csc(Cc2ccccc2)n1)N1CCC2(CCCNC2)C1 (stereo unspecified),-1
O=C(C1CCCCC1)N1CC2(C1)[C@H](c1ccccc1)[C@@H](CO)N2C(=O)c1cccnc1,-41

Continuation:
SMILES,Tgondii IFNg
CN(C)S(=O)(=O)NCCC1CCCCN1C(=O)CCc1ccc(F)cc1 (stereo unspecified),-11
CCC1=NOC(CNC(=O)c2ccc(Cn3nc(C)cc3C)cc2)C1 (stereo unspecified),3
Cc1nn(C(=O)c2ccc(Cl)cc2)c(C)c1Cl,9
COCC#Cc1ccc([C@@H]2[C@@H](CO)N3CCCCN(Cc4cccnc4)C[C@H]23)cc1,10
COc1ccccc1NC(=O)CCn1cnc(-c2ccccc2)c1-c1nccn1C,5
CCNC(=S)N1CCN(c2cccc(C)c2C)CC1,10
CS(=O)(=O)CC(=O)N1C[C@@H]2COC[C@]2(COCc2ccncc2)C1,0
CCC(=O)N1CC2(C1)[C@H](c1ccc(-c3cccc(C)c3)cc1)[C@@H](CO)N2S(C)(=O)=O,-52

Remaining list, next part
SMILES,Tgondii IFNg
O=C(COc1c(-c2ccco2)oc2ccccc2c1=O)c1ccc(Br)cc1,113
CCN(CC)S(=O)(=O)c1ccc(Cl)c(C(=O)Nc2nccs2)c1,-30
Cc1cc(C)c(-c2cnc(-n3cnnc3)c(C)c2)c(C)c1,-78*
Cc1nc(NC(=O)C2CC3CCC2C[C@@]32NC(=O)c3ccccc3N2)sc1C (stereo partly specified),2
Cc1cc(-c2ccc3c(c2)CCO3)cnc1N,13
NCCN=C1NS(=O)(=O)c2ccccc21,5
COC(=O)c1c(C(=O)OC)c2n(c1C)CCS2,30
O=C(Oc1ccc(-n2cnnn2)cc1)c1ccco1,-48

Other compounds follow.
SMILES,Tgondii IFNg
O=C(NCc1cnn2ccccc12)c1ccccc1N1CCS(=O)(=O)CC1,36
O=C(c1cnccn1)N1CC(=O)N2[C@H](CO)[C@H](c3ccc(-c4cccc(F)c4)cc3)[C@H]2C1,-30
O=C(NCCCC1CCOC1)c1n[nH]c2c1CCCCC2 (stereo unspecified),26
C[C@@H]1CN([C@@H](C)CO)C(=O)Cc2cc(NC(=O)Nc3ccc(F)cc3)ccc2O[C@H]1CN(C)S(C)(=O)=O,19
Cc1cc(-c2cc3c(n(Cc4cccnc4)c2=O)CCN(C(=O)c2snnc2C)C3)ccc1F,-44
OCC1(O)CCN(Cc2cccc3nonc23)CC1,7
O=C(NCCCN1CCCCC1)C1CN(C(=O)c2ccncc2)CC12CCCCC2 (stereo unspecified),-52
O=C(c1cccc(C(F)(F)F)c1)C1CCCN(C(=O)Cn2nc3ccccc3n2)C1 (stereo unspecified),5

Entries from the list above that have a Cl atom, in the order listed:
SMILES,Tgondii IFNg
Cc1ccc(NC(=O)CC(=O)NCCN2CCCCC2CO)cc1Cl (stereo unspecified),-64
Cc1cc(S(=O)(=O)NN(C)c2cccc(Cl)c2C#N)cc(C)c1F,28
O=C1CCc2cc(S(=O)(=O)Nc3cc(C(F)(F)F)ccc3Cl)cc3c2N1CC3,196
Cc1onc(-c2c(Cl)cccc2Cl)c1NC(=O)N(C)c1c2c(nn1C)CCCC2,54
CSc1nc(N)nc(-c2cc(Cl)cc(Cl)c2)n1,-51
Cc1nn(C(=O)c2ccc(Cl)cc2)c(C)c1Cl,9
CCN(CC)S(=O)(=O)c1ccc(Cl)c(C(=O)Nc2nccs2)c1,-30

Carrying on:
SMILES,Tgondii IFNg
Cc1ccc(S(=O)(=O)NCCc2sc(-c3cccc(F)c3)nc2C)cc1C,68
CN1CCC(CNC(=O)c2ccccc2Oc2ccccc2)CC1,-8
COc1ccc(CN2COc3ccc(Cl)cc3C2)cc1,-89*
Cc1cc(C)cc(NC(=O)N2CCC3(CC2)Nc2cc(F)ccc2-n2cccc23)c1,162
CCn1ccc(C(=O)N2CCCCC2CCNS(C)(=O)=O)n1 (stereo unspecified),-45
COCCOc1ccccc1NC(=O)c1ccc(Cl)cc1,-17
CCOCC(=O)NCCc1csc(-c2ccc(F)cc2)n1,-20
COc1ccc(S(=O)(=O)Nc2ccc3c(c2)C(=O)N([C@@H](C)CO)C[C@@H](C)[C@H](CN(C)S(=O)(=O)c2ccc(Cl)cc2)OCCCC[C@@H](C)O3)cc1,-59

(further entries)
SMILES,Tgondii IFNg
CCc1ccc(-c2nccn2-c2cccc(NC(C)=O)c2)nc1,5
COc1ccc(CN2CCN(C)C[C@@H]2c2ccccc2)c(OC)c1OC,1
Cc1oc(-c2ccc(Cl)cc2)nc1Cn1nnc(C(=O)Nc2ccc(Br)cc2F)c1C,-24
Cc1cccc(-c2nc(CCNC(=O)Cc3ccccc3)cs2)c1,i
CCn1c(NC(=O)CCn2nc(C)c(Cl)c2C)nc2ccccc21,-13
CCOc1ccc(NC(=O)Cn2c(C)cc(C)nc2=O)cc1,19
CCn1nnc2c1CCN(CCOc1ccc(Cl)cc1)C2COC (stereo unspecified),1
CN(C)CCOCC1CN(C(=O)CC2C=CCC2)Cc2nnn(C)c21 (stereo unspecified),-56

Following part:
SMILES,Tgondii IFNg
CCCCN=C1Sc2nc3cc(C)c(C)cc3cc2CN1Cc1cccs1,6
Cc1ccccc1-c1cc(O)c2c(c1)CN(C(=O)CC(F)(F)F)CCO2,-19
O=c1[nH]c2ccc([N+](=O)[O-])cc2c2ccccc12,-53
COCC#Cc1ccc([C@@H]2[C@@H](CO)N3CCCCN(C(=O)NC4CCCC4)C[C@H]23)cc1,-18
CCN(CC)C(=O)c1[nH]c(C)c(C)c1C,-59
Cc1cccnc1CN1CCC2(CC(NC(=O)c3cnccn3)C2)C1 (stereo unspecified),40
COc1ccc(S(=O)(=O)Nc2ccccc2C(=O)N2CCCC2)cc1,-6
COCc1nc(NC2CCCc3cc(OC)ccc32)c2cnn(C)c2n1 (stereo unspecified),41

Further entries
SMILES,Tgondii IFNg
CCn1nnc2c(NCCSc3c[nH]c4ccccc34)ncnc21,3
O=C(c1ccc[nH]1)N1CCC2(CC1)COCCN(c1ncccn1)C2,-39
Cc1ccc(CC(=O)Nc2ccc(-c3nc(-c4ccc(C)cc4)co3)cc2)cc1,27
Cc1cc(CC(C)NC(=O)CSCc2ccccc2Cl)n[nH]1 (stereo unspecified),53
CN(C)CC1CN(C(=O)c2cscn2)Cc2nccn2C1 (stereo unspecified),155
Nc1ccc(Sc2ccccn2)c(Cl)c1,61
Cc1cnc(C(=O)N2CCc3nc(C(=O)N(C)C)sc3CC2)cn1,10
CC(=O)NC(C(=O)O)C(C)(C)S[NH2+][O-] (stereo unspecified),18

Later entries:
SMILES,Tgondii IFNg
Cc1oc(-c2ccc(NC(=O)c3cccc(Cl)c3)cc2)nc1Cn1cccn1,-33
COc1ccccc1NC(=O)CCNC(=O)c1ccc2c(c1)CCO2,11
COc1ccc(CNC(=O)c2c(O)c3cccnc3n(-c3cccc(F)c3)c2=O)cc1,183
Cc1nc(-c2ccc(Cl)cc2)sc1CCNC(=O)c1ccco1,-12
CSc1cccc(NC(=S)Nc2cc3c(c(N)c2C)C(C)(C)CC3(C)C)c1,93
COc1cccc(C(=O)NCCc2sc(-c3ccc(F)cc3)nc2C)c1OC,-10
COc1ccc(C(=O)/C=C/c2cc(C(=O)O)cc3c2OCOC3)c(O)c1,14
O=C(c1ccccn1)N1C[C@H]2[C@@H](c3ccccc31)[C@@H](CO)N2C(=O)C1CCCCC1,-10

(listing goes on)
SMILES,Tgondii IFNg
Cc1cc2nc(C)n(CC(=O)N(CCN(C)C)Cc3ccc4c(c3)OCO4)c2cc1C,-14
CN(C)C1CCN(S(=O)(=O)c2cccc(F)c2)C(C(=O)O)C1 (stereo unspecified),-3
COC[C@@H]1CCC2C(CCN2C(=O)c2ccc3[nH]ccc3c2)O1 (stereo partly specified),-12
O=C(NCc1ccc(C(F)(F)F)cc1)c1cn2c(n1)CCCC2,-26
C[C@@H]1CN([C@H](C)CO)C(=O)c2c(c3ccccc3n2C)-c2ccccc2CO[C@H]1CN(C)C(=O)Nc1ccc2c(c1)OCO2,-7
Cc1ccc(S(=O)(=O)N2CCC3(CC2)Nc2cc(F)ccc2-n2cccc23)cc1,31
Cn1cc(CN(CCO)Cc2cccs2)c(-c2cccc(Cl)c2)n1,9
CN1C(=O)c2cc(NC(=O)Cc3cccs3)ccc2OC[C@H]2O[C@@H](CC(=O)NCc3ccc(-c4ccccc4)cc3)CC[C@@H]21,-67

Later entries:
SMILES,Tgondii IFNg
CCc1cc(C(C)NC(=O)c2cc(C(C)C)nn2CC)on1 (stereo unspecified),4
O=C(NC1(O)C(=O)c2ccccc2C1=O)c1c(Cl)cccc1Cl,17
CCCc1c(C(=O)Nc2ccc3ccccc3n2)cnn1-c1ccccc1,-37
Cc1nc(-c2cccc(F)c2)sc1CCNS(=O)(=O)c1cccs1,31
Cc1cccc2c(C(=O)N(Cc3nccn3C)C(C)C)cc(-c3cnn(C)c3)nc12,34
CCC(=O)NCCc1csc(C2CCCN(C(=O)/C=C/c3cccc(Cl)c3)C2)n1 (stereo unspecified),-79*
O=C(c1ccc(F)cc1)N1C[C@H](OCc2cccnc2)[C@@H]2COC[C@@H]21,-22
C[C@@H]1CN(CC2CCOCC2)CC[C@]12CCC(C(=O)NCC1CC1)O2 (stereo partly specified),-14

(continued)
SMILES,Tgondii IFNg
CNCC(O)c1ccc(OC(=O)C(C)(C)C)c(OC(=O)C(C)(C)C)c1 (stereo unspecified),14
O=C(C1CCOCC1)N1C[C@H]2[C@@H](c3ccccc31)[C@@H](CO)N2C(=O)Cc1ccccn1,-7
COc1cccc(NC(=O)N[C@H]2C=C[C@@H](CC(=O)NCc3ccncn3)O[C@H]2CO)c1,20
COc1ccc(CNC(=O)c2cc3c(c(-c4cccc(-c5ccc(C#N)cc5)c4)n2)[C@H](CCO)N([S@@](=O)C(C)(C)C)C3)cc1,-56

This is a subset; count on the stated rates, not on these rows.
